LANA-H2B inh = blocks KSHV LANA binding to histone H2A/H2B; inhibition, % (test concentration not listed); hit rate 0.6% among 320,000; Q9QR71; cell-free LANA-H2A/H2B peptide, fluorescence polarization; in the data active means inhibition mostly above about 10%, no sharp cut-off; inactive means mostly below about 6.7%;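 further: stock transfer was 7.5 nL into about 10 µL; 0% = median of vehicle wells and 100% = median of positive control wells; one replicate is shown; the record names a cut of 25% in any replicate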
B2AR ag = human beta-2 adrenergic receptor agonism by FAP; hit rate 0.43% among 340,000; AID 504454; Am2.2-beta2AR cells, FAP receptor internalization, flow cytometry; reference of the scale not given here; response, % (concentration not given with the values);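 active means response above a set limit, near 3 SD of response in nonfluorescent compounds, cut at about 42% in these data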;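 further: stock transfer was 100 nL into about 11 µL; a reference agonist was the positive control; negative values mostly stem from fluorescent compounds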
Target sequence (P07550 whole entry, looked up): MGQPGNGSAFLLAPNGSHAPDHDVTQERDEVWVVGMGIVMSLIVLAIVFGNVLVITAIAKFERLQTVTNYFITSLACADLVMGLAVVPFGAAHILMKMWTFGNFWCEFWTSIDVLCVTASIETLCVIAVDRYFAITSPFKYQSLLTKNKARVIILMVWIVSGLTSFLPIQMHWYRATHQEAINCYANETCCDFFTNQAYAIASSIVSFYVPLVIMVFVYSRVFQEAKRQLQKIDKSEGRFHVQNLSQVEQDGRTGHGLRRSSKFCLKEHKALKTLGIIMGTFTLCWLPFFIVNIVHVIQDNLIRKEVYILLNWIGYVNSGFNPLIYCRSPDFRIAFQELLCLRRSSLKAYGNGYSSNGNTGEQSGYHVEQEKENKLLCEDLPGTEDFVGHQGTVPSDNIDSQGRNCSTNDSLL
HNF4A DNA FP = change in binding of human HNF4 alpha to DNA | HNF4a-FITC DNA binding, fluorescence polarization, 1 h | activity change, % at 10 µM | hit rate 0.3% among 360,000; in the data active means activity change above about 30%, passing the limit was not always enough;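 further: controls were the assay level and a saturating level of protein; the project sought stronger binding though the title names inhibitors; some compounds called inactive have numbers as strong as hits; positive values seem to mean higher polarization but the record does not say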
A1 inh = inhibitors of the anti-apoptotic protein A1, read as caspase activation; AID 2462; caspase activation, % (no concentration beside the values); MEF A1-2A-BIM cells, Caspase-Glo 3/7 luminescence, 3 h; percent of clofoctol response, vehicle zero; hit rate 0.066% among 330,000;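 active means over half of replicate activation scores above 10%, or exactly half above 10 with the replicate mean above 10; inconclusive means replicate mean below 10 yet half the replicates above 10; inactive means over half of replicates below 10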;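 further: wells of about 30 µL received 50 nL stock; many hits fall short of the cut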
E coli growth = inhibitors of Escherichia coli growth; OD600, 23 h; hits give low values; OD600 absorbance (no concentration beside the values); hit rate 0.21% among 330,000;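 active means OD600 absorbance below the run mean of sample wells minus 3.6 SD, in any replicate, cut at about 0.56 in these data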;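 further: stock transfer was 300 nL into about 60 µL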
UCH37 DUB inh = blocks the human deubiquitinase UCH37. Q9Y5K5. purified proteasome/UCH37, Ub-AMC cleavage fluorescence. inhibition, % (concentration not given with the values). hit rate 0.33% among 330,000. AID 588478;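 active means mean of two replicates above 20%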;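 further: 0% = compound-free wells with enzyme and 100% = wells lacking proteasome; stock transfer was 100 nL into about 20 µL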
Target sequence (Q9Y5K5 whole entry, looked up): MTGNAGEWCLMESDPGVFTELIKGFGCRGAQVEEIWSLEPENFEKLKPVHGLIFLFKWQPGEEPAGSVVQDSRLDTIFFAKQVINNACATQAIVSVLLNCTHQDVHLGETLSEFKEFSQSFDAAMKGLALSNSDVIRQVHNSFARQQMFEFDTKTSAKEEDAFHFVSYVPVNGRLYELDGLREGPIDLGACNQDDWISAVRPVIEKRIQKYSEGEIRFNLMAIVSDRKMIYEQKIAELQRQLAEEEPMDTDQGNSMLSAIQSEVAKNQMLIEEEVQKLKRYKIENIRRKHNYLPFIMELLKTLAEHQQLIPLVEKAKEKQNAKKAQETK
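Material: human UCH37 enzyme supplied as purified proteasome complex. Measure: % inhibition of Ub-AMC cleavage fluorescence. Medium: pH 7.4 Tris-HCl (50 mM) with ovalbumin, ATP-MgCl2, DTT. Times: 30 min preincubation with enzyme, 25 min cleavage at room temperature. Detection: AMC fluorescence intensity at 355/460 nm.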
Vif A3G = inhibitors of Vif binding to APOBEC3G peptide, primary screen, biochemical, TR-FRET, GST-Vif 1-94, biotin-A3G peptide, dose response retest (AID 1117319) | inhibition, %; hits with a dose series show IC50 in µM | hit rate 0.57% among 260,000 | TR-FRET GST-Vif / biotin-A3G peptide binding; higher % means a stronger effect; test concentration not given here; strong numbers were not always called active;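 active means above the screen mean plus three standard deviations and confirmed in dose response; inconclusive means results disagree or hit not tested in dose response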;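 further: Vif residues 1-94 fused to GST binding biotinylated APOBEC3G peptide 110-148; 0% = full assay without inhibitor and 100% = GST in place of GST-Vif; retest series ran down from 100 µM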
The depositor's hits bear a star; u = inconclusive; x = not tested or not shown; & = joins results of further samples.

SMILES	LANA-H2B inh	B2AR ag	HNF4A DNA FP	A1 inh	E coli growth	UCH37 DUB inh	Vif A3G
COc1cccc(N2CCN(Cc3nc(N)nc(Nc4ccccc4OC)n3)CC2)c1	1.9	0	5.0	-0.1	0.7	0.8	5%
O=C(O)c1cc(N/N=C/c2c[nH]c3ccccc23)ccc1Cl	-0.9	34	-0.4	0.5	x	x	x
O=C(N1CCN(c2ccccc2)CC1)C1(S(=O)(=O)c2ccc(Cl)cc2)CC1	-7.9	-1	1.6	-0.1	0.71	1.2	x
Cc1ccc(S(=O)(=O)NN2C(=O)c3ccccc3NC2C)cc1 (stereo not given)	-0.6	-7	-3.8	-0.1	0.66	-168	-9%
Cc1c(S(=O)(=O)Nc2cc(Cl)ccc2Cl)c(=O)n(C)c(=O)n1C	0.4	0	2.1	0.0	0.68	1.6	-4%
COc1cccc(CNC(=O)C2CCCN(S(=O)(=O)c3c(C)noc3/C=C/N(C)C)C2)c1 (stereo not given)	2.4	8	-2.0	0.2	0.71	13	x
Cc1ccccc1NC(=O)COC(=O)c1cc(=O)c2ccccc2o1	-1.3	x	x	-0.5	x	x	-5%
COCCCN1CCc2[nH]c(=S)[nH]c(=O)c2C1	x	7	-5.0	-0.5	x	x	x
N#Cc1ccc(CC(C(=O)O)N2Cc3ccccc3C2=O)cc1 (stereo not given)	0.4	4	0.7	-1.1	0.64	3.1	-12%
O=C(NC1CC2CCCC(C1)N2Cc1ccccc1)c1ccc([N+](=O)[O-])cc1 (stereo not given)	7.3	-3	0.2	0.4	0.71	4.2	x
O=C(N/N=C/c1ccc(O)cc1)c1ccncc1	0.8	2	-1.6	-4.8	x	x	1%
COc1ccc(N2CCN(CC(=O)Nc3ccc(C)c(C)c3)CC2)cc1	3.8	1	1.1	-0.7	0.67	2.2	14%
COc1ccc(NCc2nnc(SCC(=O)Nc3ccc(OC)cc3)n2C)cc1	1.8	8	-1.5	0.9	0.66	-1.0	-6%
CCCCNC(=O)c1cccc2c(=O)c(C)c(-c3ccccc3)oc12	-4.3	-17	2.1	0.4	0.68	2.5	x
NC(=O)/C(=C/c1ccc2c(c1)OCO2)NC(=O)c1ccco1	4.3	1	2.0	0.0	0.65	5.4	21%
Cc1ccccc1C(=O)N1CCC(C(=O)Nc2cccc(F)c2)CC1	1.5	4	-0.3	1.4	0.67	5.0	-5%
O=C(NCCN1CCCCC1)Nc1ccccc1F	2.6	7	-3.9	0.1	0.68	3.0	-1%
CC1CCN(c2nnc(N)s2)CC1	x	-1	-1.8	x	0.76	1.4	2%
COC(=O)c1c(NC(=O)C(=O)NCCCN2CCOCC2)sc2c1CC(C)(C)OC2	-0.3	-3	0.2	-0.2	0.63	5.1	x
Cc1cc2c(C)nc(Cc3ccccc3)nc2o1	-1.2	-14	1.9	-0.5	0.76	-2.4	1%
CCC(=O)c1ccc(OCCn2cncn2)cc1	-1.3	-5	4.0	2.7	0.73	0.3	-1%
N#CCC(=O)NN=C1CCCCCCCCCCC1	-5.0	0	1.9	-0.3	0.68	2.3	0%
CC(=O)n1cc(/C=N/NC(=O)c2ccc([N+](=O)[O-])cc2)c2ccccc21	-0.8	7	-0.5	0.3	x	x	2%
C=CCn1c(=NC(=O)c2ccco2)sc2cc(C(=O)OCC)ccc21	3.1	-16	2.0	-1.4	0.72	-26	12%
O=C(Nc1ccccc1)OCCNC(=O)c1cccc(Br)c1	0.7	-1	-1.4	0.6	0.62	1.3	-6%
CC1CCN(C(=O)Cn2cc(SCC(=O)NCC3CCCO3)c3ccccc32)CC1 (stereo not given)	2.6	0	-1.2	0.1	0.73	2.4	x
O=C(Nc1ccc(Cl)cc1F)c1ccc(COc2c(F)c(F)c(F)c(F)c2F)o1	2.2	-3	-0.4	0.4	0.76	-1.9	u
COC(=O)Sc1nc(N2CCOCC2)c2c(c1C#N)CC(C)(C)OC2	0.2	7	-2.4	0.7	0.71	3.8	u
CN(C)c1ccc(S(=O)(=O)N2CCCCC2)cc1NC(=O)CN1C(=O)NC(C)(c2ccccc2)C1=O (stereo not given)	-3.8	3	-3.2	1.0	0.68	5.8	-4%
CCOC(=O)c1cc(NC(=O)c2ccccc2)c(=O)oc1-c1ccccc1	-4.9	-18	-1.8	1.5	0.68	6.4	10%

Record cards, as listed above. Order of values: LANA-H2B inh | B2AR ag | HNF4A DNA FP | A1 inh | E coli growth | UCH37 DUB inh | Vif A3G
Entry for `O=C(Nc1ccccc1)OCCNC(=O)c1cccc(Br)c1` : 0.7 | -1 | -1.4 | 0.6 | 0.62 | 1.3 | -6%
Entry for `N#CCC(=O)NN=C1CCCCCCCCCCC1` : -5.0 | 0 | 1.9 | -0.3 | 0.68 | 2.3 | 0%
Entry for `CCOC(=O)c1cc(NC(=O)c2ccccc2)c(=O)oc1-c1ccccc1` : -4.9 | -18 | -1.8 | 1.5 | 0.68 | 6.4 | 10%

Remaining list, next part
SMILES	LANA-H2B inh	B2AR ag	HNF4A DNA FP	A1 inh	E coli growth	UCH37 DUB inh	Vif A3G
COc1ccc(C(CCN2CCCC2)c2c(O)cc(OC)cc2OC)cc1 (stereo not given)	6.4	4	0.7	-0.3	0.67	-1.0	x
Cc1cccc(C(=O)NC(C)C(=O)NC(c2nc3ccccc3[nH]2)C(C)C)c1 (stereo not given)	5.2	4	1.5	0.4	0.69	0.2	x
O=C(/C=C/c1cn(-c2ccccc2)nc1-c1cccnc1)N1CCCC1	x	-39	-0.2	x	0.69	2.4	-9%
COc1ccccc1CC(=O)N1CCCC1	3.0	1	-0.4	0.0	0.68	0.1	5%
O=C(COC(=O)c1ccc([N+](=O)[O-])cc1)Nc1ccccc1C(=O)NC1CC1	3.8	2	2.5	0.0	0.71	-0.4	2%
c1ccc(-c2noc(CSc3nnnn3-c3ccccc3)n2)cc1	2.0	-4	-2.7	0.1	0.71	3.1	4%
CN(CC(=O)Nc1ccc(OC(F)F)cc1)S(=O)(=O)/C=C/c1ccccc1	-1.4	-2	0.6	0.1	0.67	1.1	x
CCOC(=O)N1CCc2c(sc3nc[nH]c(=O)c23)C1	0.2	-2	-1.6	1.5	0.67	-23	x
O=C(C1CCCO1)N1CCN(c2c3c(nc4cc(-c5ccc(F)cc5)nn24)CCC3)CC1 (stereo not given)	1.2	-26	2.2	-0.2	0.65	-26	15%&-2%
NNC(=O)c1nc[nH]c1C(=O)Nc1ccccc1[N+](=O)[O-]	3.2	16	-0.9	0.5	0.69	1.3	17%
COC(=O)c1sccc1NC(=O)CC1C(=O)NCCN1C(=O)c1ccccc1 (stereo not given)	0.4	6	2.1	0.9	0.69	1.4	-14%
O=C(c1cc2c(s1)-c1ccccc1S(=O)(=O)C2)N1CCCC1	10	-8	7.6	-1.0	0.69	1.9	x
O=C(NCCc1csc(-c2ccc(Cl)cc2)n1)c1ccco1	0.1	4	-0.8	-0.5	0.64	1.3	x
O=C(NCCc1ccc(Cl)cc1)c1cc(-c2ccncc2)nc2ccccc12	-0.9	9	1.8	0.4	0.72	0.7	-1%
CCC(C)Sc1nc(O)c(Cc2ccccc2)c(=O)[nH]1 (stereo not given)	1.9	5	-2.7	-0.8	0.72	5.5	4%
Cn1c(SCC(=O)NCc2ccccc2)nnc1C1CC1	-3.7	4	-2.4	-0.4	0.72	2.9	-9%
N#CN(Cc1ccccc1)Cc1ccccc1	-0.5	-1	-7.3	0.5	0.66	3.7	-9%
Cc1cc2nc(CSc3ccc(Cl)cc3)cc(=O)n2[nH]1	6.2	5	0.4	-0.4	0.64	2.0	8%
Cc1c(NC(=O)Nc2ccc3c(c2)OCO3)cccc1[N+](=O)[O-]	5.2	4	0.2	-0.6	0.63	1.8	3%
NC(=O)c1ccccc1NC(=O)c1ccc2c(c1)OCO2	0.1	-5	-2.0	-6.2	0.67	1.4	x
O=C(c1c(F)cccc1Cl)N1CCN(c2ccccn2)CC1	0.6	-5	0.3	0.0	0.7	1.1	x
O=C(C(=O)N1CCc2ccccc2C1)c1cn(CC(=O)N2CCOCC2)c2ccccc12	x	-6	-3.9	0.8	0.65	1.8	x
COc1ccccc1/C=C/C(=O)c1ccc(Cl)cc1	x	0	7.6	x	0.67	3.3	1%
O=C(NCCCN1CCOCC1)c1ccc(N2CCCC2)c([N+](=O)[O-])c1	-1.1	-15	1.0	0.5	0.68	5.6	-3%
O=C(NC1=NCCS1)c1ccc(Br)s1	0.5	1	0.8	-1.6	0.66	1.5	1%
N#Cc1c(-c2ccco2)cc(C2CC2)nc1N	-3.1	8	23	0.3	0.73	-153	18%
COc1ccc(C(C)=O)cc1COC(=O)C1CCN(C(=O)c2ccc(Cl)cc2)CC1	13	13	2.2	0.1	0.68	0.6	x
O=[N+]([O-])c1cc(-c2nnc(N3CCOCC3)c3ccccc23)ccc1N1CCOCC1	-2.5	-4	1.6	0.4	0.68	8.0	-7%
Nc1ncnc2c1ncn2[C@@H]1O[C@H](CNC(=O)[C@@H](N)COCc2ccccc2)[C@@H](O)[C@H]1O	x	-11	4.1	x	0.71	3.5	-1%
CCOc1cc(C)c(S(=O)(=O)NCc2ccccn2)cc1C	1.1	-7	1.0	-0.8	0.61	1.9	3%
O=c1cc(CNc2cc(C(F)(F)F)cc(C(F)(F)F)c2)nc2sccn12	-0.8	-2	-1.0	0.6	0.67	-17	x
COc1cc(S(=O)(=O)N2CCN(c3ccccc3F)CC2)c(OC)cc1Cl	-1.1	-5	-2.7	0.4	0.73	2.6	-1%&1%
O=C(Nn1c(COc2ccccc2)nc2ccccc2c1=O)C(Cl)(Cl)Cl	-0.2	16	2.9	0.0	0.69	2.1	8%
CCN1CCN(C(=O)COCc2cc(-c3ccc4c(c3)OCO4)on2)CC1	2.2	1	-4.9	-0.5	0.64	-0.5	4%
CCOc1ccc(N2CC(C(=O)Nc3nnc(Cc4ccc(OC)cc4)s3)CC2=O)cc1 (stereo not given)	16	8	0.5	-0.9	0.7	1.3	x
c1ccc2c(c1)nnn2-c1ncnc2sccc12	-6.6	-2	-0.9	-2.2	0.68	2.3	-20%
CCSc1nnc(-c2cc(Br)ccc2N=Cc2c(C)[nH]n(-c3ccccc3)c2=O)c(=O)[nH]1	2.2	8	-5.7	0.0	0.62	12	x
O=C(Cn1ncc2c(=O)oc3ccccc3c21)NCCN1CCN(c2ccccc2F)CC1	-14	-10	-1.3	0.2	0.78	3.2	-1%
Cc1ccc(-c2noc(CCC(=O)NC3CC3)n2)cc1	-5.6	2	-1.6	0.0	0.66	-2.1	3%
CCC(Cc1ccccc1)NC(=O)C1CCN(S(=O)(=O)c2ccc3c(c2)CC(C)N3C(C)=O)CC1 (stereo not given)	-1.9	0	-2.9	0.4	0.75	5.7	x
O=c1cc(Nc2ccc3c(c2)OCCO3)[nH]c(=O)n1-c1ccc(Br)cc1	5.8	4	4.5	0.2	0.66	-3.0	7%
Cc1nn(C)c(C)c1S(=O)(=O)N1CCC(C(=O)NC(C)c2ccccc2)CC1 (stereo not given)	5.1	-3	6.3	0.9	0.71	-1.7	16%
Cc1ccnc(NC(=S)NC(=O)/C=C/c2ccccc2)c1	-3.2	10	-2.4	0.6	0.74	3.5	-2%
CCOc1ccccc1NC(=O)CC1Nc2cc(C)c(C)cc2NC1=O (stereo not given)	-6.7	3	-0.6	-0.1	0.74	0.0	10%&7%

High-throughput results (PubChem)
